CtBP-E1A inh: inhibitors of CtBP/E1A interaction | AlphaScreen GST-E1A/His-CtBP binding, 1536-well; stronger effect = lower value; control for the full effect not named in the record | activity change, % (concentration not given with the values) | 340,000 compounds, 0.49% hits | AID 651724; in the data active means activity change below about -65%; inconclusive means about -30% to -65%; inactive means above about -30%; further: on the % scale 0 is the no-effect control and ±100 the full control effect
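Protein mix (5X: 125 nM each GST-E1A, His-CtBP) was incubated with pinned compound 2 h at 37 deg C in dark, in 50 mM Tris pH 8.0 buffer with 300 mM NaCl. Glutathione donor and nickel acceptor beads followed; AlphaScreen signal read after 1 h.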
TRPML1 blocker: human mucolipin-1 channel inhibition | Q9GZU1 | TRPML1-inducible cells, Ca2+ dye fluorescence, FDSS; stronger effect = lower value; inhibition of EC80 agonist-evoked calcium signal | activity change, negative = inhibition, % (no concentration beside the values) | 390,000 compounds, 0.02% hits | AID 624415; in the data active means activity change below about -50%; inconclusive means about -30% to -50%; inactive means above about -30%;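 further: stimulus is agonist 54-4 at its EC80 concentration; on the % scale 0 is the no-effect control and ±100 the full control effect; compound concentration not given in the record; the text of the record puts the active cut at -80%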
Target sequence (Q9GZU1 whole entry, looked up): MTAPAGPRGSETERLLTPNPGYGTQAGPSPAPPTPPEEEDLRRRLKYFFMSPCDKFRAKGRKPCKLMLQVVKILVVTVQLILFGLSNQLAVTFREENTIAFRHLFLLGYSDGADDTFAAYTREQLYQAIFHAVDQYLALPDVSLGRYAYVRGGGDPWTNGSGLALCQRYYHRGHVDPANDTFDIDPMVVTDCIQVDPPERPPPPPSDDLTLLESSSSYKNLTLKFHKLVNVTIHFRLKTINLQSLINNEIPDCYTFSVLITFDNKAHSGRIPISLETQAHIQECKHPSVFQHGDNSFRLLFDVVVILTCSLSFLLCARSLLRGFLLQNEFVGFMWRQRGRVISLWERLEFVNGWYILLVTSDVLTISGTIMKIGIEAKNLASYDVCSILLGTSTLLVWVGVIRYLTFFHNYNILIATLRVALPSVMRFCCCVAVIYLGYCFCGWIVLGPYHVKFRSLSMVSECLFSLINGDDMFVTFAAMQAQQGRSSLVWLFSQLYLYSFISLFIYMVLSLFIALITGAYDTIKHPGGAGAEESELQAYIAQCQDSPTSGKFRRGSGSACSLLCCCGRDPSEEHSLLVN
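Tet-induced TRPML1-DL cells loaded with Ca8 no-wash calcium dye were read kinetically on FDSS. Compound addition was followed by EC80 agonist 54-4 (4 uM final); inhibition was read over 110 s.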
D2 potentiator: potentiates the human D2 dopamine receptor allosterically | AID 624464 | P14416 | potentiation, % (no concentration beside the values) | 360,000 compounds, 0.23% hits | DiscoveRx D2 beta-arrestin cells, luminescence, 90 min; 100% = 57 uM dopamine signal; active = potentiation of 50% or more; inconclusive = 30% to 50%; inactive = 30% or less;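 further: compound concentration not given in the record; tested on top of an EC20 dose of dopamine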
Target sequence (P14416 whole entry, looked up): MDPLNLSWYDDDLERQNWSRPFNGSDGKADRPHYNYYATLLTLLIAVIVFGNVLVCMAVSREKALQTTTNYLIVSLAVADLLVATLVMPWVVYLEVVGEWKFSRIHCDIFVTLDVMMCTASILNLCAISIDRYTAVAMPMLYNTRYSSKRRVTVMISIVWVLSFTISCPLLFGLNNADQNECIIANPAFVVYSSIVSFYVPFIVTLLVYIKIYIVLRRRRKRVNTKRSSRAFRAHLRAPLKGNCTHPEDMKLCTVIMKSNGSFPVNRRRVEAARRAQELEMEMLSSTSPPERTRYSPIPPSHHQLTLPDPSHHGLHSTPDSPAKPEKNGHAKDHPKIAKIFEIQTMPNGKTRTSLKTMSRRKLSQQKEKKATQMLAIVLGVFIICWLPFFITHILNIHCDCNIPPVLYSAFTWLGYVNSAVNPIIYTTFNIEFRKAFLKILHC
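PathHunter D2 cells, attached overnight at 37 deg C, received compound in DMSO plus dopamine at EC20 (50 nM final) for 90 min at 37 deg C. Beta-arrestin recruitment was read as luminescence after 1 h with detection reagent at ambient temperature.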
TRPML1 agonist: activates the human TRPML1 channel. AID 624414. TRPML1-expressing cells, Ca2+ dye fluorescence, FDSS; host cell line not named in the record; reference of the full effect not given here. Q9GZU1. 410,000 compounds, 0.12% hits. activation, % (no concentration beside the values); in the data active = activation above about 50%; inconclusive = about 30% to 50%; inactive = below about 30%; further: 0% is about no effect; the text of the record puts the active cut at 80%
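Tetracycline-induced TRPML1-DL cells are seeded and incubated overnight before loading with a no-wash Ca2+ dye and quencher. Agonist activity is taken from the 110 s fluorescence read following compound pin-transfer on an FDSS, before EC80 54-4 challenge.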
TRPV1 potentiator: enhances activation of the human vanilloid receptor TRPV1 | TRPV1-expressing cells, Fluo-8 calcium influx, capsaicin EC20 potentiation; host cell line not named in the record; control for the full effect not named in the record | AID 540277 | potentiation, % at 8.33 µM | 320,000 compounds, 0.02% hits | Q8NER1; active means potentiation above 80%; inconclusive means 30% to 80%; inactive means below 30%; further: 0% is about no effect
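Fluo-8 calcium influx in TRPV1-expressing cells, kinetic read (ex 480/em 520 nm). Compound added and read 3 min for agonist activity, followed by capsaicin at EC20 final and 2 min further read for enhancement.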
Six1-Eya2 inh: blocks human Six1 binding to Eya2; activity change, % (test concentration not listed); AlphaScreen GST-Six1/His-Eya2 binding, biochemical; stronger effect = lower value; control for the full effect not named in the record; Q15475+O00167; AID 651725; 360,000 compounds, 0.56% hits; in the data active = activity change below about -65%; inconclusive = about -30% to -65%; inactive = above about -30%; further: on the % scale 0 is the no-effect control and ±100 the full control effect
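Six1/Eya2 binding was read as AlphaScreen signal after compounds were pinned into GST-Six1 plus His-tagged Eya2 (5X stock 250/500 nM) in pH 8.0 Tris/NaCl/TCEP buffer, beads added, then incubated 1 h, 37 C, dark.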
* hit, by the source's call; ? = inconclusive; · = no result given; & = joins results of further samples. Compounds were not picked by outcome; overall some 0.95% were active at least once.

SMILES | CtBP-E1A inh | TRPML1 blocker | D2 potentiator | TRPML1 agonist | TRPV1 potentiator | Six1-Eya2 inh
CCc1nnc(NC(=O)C2CCCN2S(=O)(=O)c2ccc(C)cc2)s1 (stereo not given) | 2 | -25 | 5 | -0.8 | 11 | 0
Cc1cccc(C(=O)Nc2cccc(NC(=O)c3ccccc3)c2)c1 | -17 | 7 | -8 | 2.3 | 21 | 16
CC(C)N(Cc1cc2ccccc2[nH]c1=O)C(=O)c1ccco1 | 1 | -11 | -3 | -0.3 | 12 | -1
CCOC(=O)c1sc(NC(=O)CSc2n[nH]c(CC(C)C)n2)nc1C | -22 | -3 | -5 | 1.1 | -2 | -12
O=C(Cn1nc(C(=O)O)c2ccccc2c1=O)Nc1cc(Cl)ccc1-n1cncn1 | · | 3 | 5 | -1.1 | -2 | -2
Cc1ccc(C(=O)NC(C(=O)Nc2ccccc2)c2ccccc2)cc1 (stereo not given) | -5 | 39 | -6 | 0.1 | ? | -4
Cc1ccc(-c2nnc3sc(CCc4ccccc4)nn23)cc1 | 21 | -6 | -13 | 0.2 | -20 | -2
CC(=O)Nc1ccc(NC(=O)CSc2nnc(NC(=O)c3ccccc3F)s2)cc1 | -5 | -3 | -8 | -0.4 | · | -11
Cc1nn(C(C)C(=O)NCc2ccco2)c(=O)c2nn(-c3ccccc3)c(C)c12 (stereo not given) | · | 32&22 | -10 | -1.3&-0.4 | 0 | 16
CN(Cc1ccccc1)c1nc2c(c(=O)[nH]c(=O)n2C)n1Cc1ccccc1Cl | 6 | 39 | 3 | 0.8 | ? | -1
CC1(C(=O)NS(=O)(=O)c2ccccc2Cl)CCN1C(=O)C1(c2ccccc2)CCCC1 (stereo not given) | 4 | · | 2 | -0.8 | · | 8
c1ccc2c(c1)-c1nc3ccccc3cc1C2N1CCOCC1 (stereo not given) | -20 | 5 | 3 | -0.2 | · | -25
COc1cccc(CN2CC(C(=O)NCCSc3nnnn3C)CCC2=O)c1 (stereo not given) | 5 | 4 | 6 | 0.0 | 9 | -6
COc1ccccc1CC(NC(C)=O)C(=O)N1CCN(C(=O)c2cccs2)CC1 (stereo not given) | 0 | 3 | -7 | -0.7 | 1 | -4
CCCCNC(=O)NS(=O)(=O)c1ccc(NC(=O)C(NC(N)=O)C(C)CC)cc1 (stereo not given) | 4 | -2 | 1 | -0.9 | -16 | 0
CC(NS(=O)(=O)c1c(N)n(C)c(=O)n(C)c1=O)c1ccccc1 (stereo not given) | 12 | -2 | -13 | 0.7 | 5 | -4
COc1ccccc1C(=O)N1CCCC(C)(C(=O)NS(=O)(=O)C2CC2)C1 (stereo not given) | -16 | 32 | -16 | 0.1 | · | 11
Cc1c(NC(=O)c2ccc(NC(=O)C3CC3)cc2)cccc1C(=O)O | 4 | 16 | 0 | -0.5 | 2 | 6
O=C(CN1C(=O)NC(Cc2ccccc2)(Cc2ccccc2)C1=O)NCC1CCCCC1 | 3 | 8 | -11 | 0.3 | -24 | 7
CCSc1nnc(NC(=O)c2ccccc2C)s1 | 9 | -10 | -5 | -0.2 | 7 | 1
CCOC(=S)N/C(=N\S(C)(=O)=O)c1ccccc1 | -12 | · | -3 | · | -3 | 4
O=C(Nc1ccc(Cl)cc1)c1cccc(N2C(=O)C3C4CCC(C4)C3C2=O)c1 (stereo not given) | 5 | -1 | 9 | -0.2 | -12 | 6
NC(=NC(=O)c1ccccc1)C1=C(O)CCC1=O | -2 | -4 | 15 | -0.8 | ? | -2
COc1ccc(C(c2nnnn2Cc2ccc(F)cc2)N2CCN(c3ccc(OC)cc3)CC2)cc1 (stereo not given) | ? | 27 | -10 | 1.1 | -8 | ?
CC(C)NC(=O)NC(=O)COC(=O)CCCSc1nc2ccccc2s1 | 3 | -1 | 0 | 0.5 | 3 | 8
O=C(Nc1ccccc1)Nc1nnc(/C=C/c2ccccc2Cl)s1 | 0 | -12 | -5 | 3.9 | 22 | 0
Cn1c(=O)[nH]c(=O)c2c1nc1n2CCN1Cc1ccccc1 | ? | -2 | -4 | -0.6 | -12 | ?
Cc1ccc2cc(C3CC(c4ccco4)=NN3C(=O)CCCC(=O)O)c(Cl)nc2c1 (stereo not given) | · | -1 | -15 | -0.7 | -2 | 2
O=C(CN1CCN(Cc2ccc(F)cc2Cl)C1=O)NCCc1ccc(Cl)cc1 | -1 | 0&6 | -4 | -1.5&0.0 | -1 | 7
Nc1nsnc1C(=O)NCCO | -9 | -3 | 18 | 0.2 | 3 | 3

4 of the compounds above, as labelled records:
> CC(NS(=O)(=O)c1c(N)n(C)c(=O)n(C)c1=O)c1ccccc1 (stereo not given)
  CtBP-E1A inh = 12 | TRPML1 blocker = -2 | D2 potentiator = -13 | TRPML1 agonist = 0.7 | TRPV1 potentiator = 5 | Six1-Eya2 inh = -4

> COc1ccccc1C(=O)N1CCCC(C)(C(=O)NS(=O)(=O)C2CC2)C1 (stereo not given)
  CtBP-E1A inh = -16 | TRPML1 blocker = 32 | D2 potentiator = -16 | TRPML1 agonist = 0.1 | TRPV1 potentiator = · | Six1-Eya2 inh = 11

> Cc1c(NC(=O)c2ccc(NC(=O)C3CC3)cc2)cccc1C(=O)O
  CtBP-E1A inh = 4 | TRPML1 blocker = 16 | D2 potentiator = 0 | TRPML1 agonist = -0.5 | TRPV1 potentiator = 2 | Six1-Eya2 inh = 6

> O=C(CN1C(=O)NC(Cc2ccccc2)(Cc2ccccc2)C1=O)NCC1CCCCC1
  CtBP-E1A inh = 3 | TRPML1 blocker = 8 | D2 potentiator = -11 | TRPML1 agonist = 0.3 | TRPV1 potentiator = -24 | Six1-Eya2 inh = 7

Carrying on:
SMILES | CtBP-E1A inh | TRPML1 blocker | D2 potentiator | TRPML1 agonist | TRPV1 potentiator | Six1-Eya2 inh
CCn1c(CSc2nc(C)cc(C)n2)nnc1SCC(N)=O | 5 | -1 | -8 | -0.4 | -1 | 7
O=C(O)CC(Cc1ccccc1)C(=O)NCC12CC3CC(CC(C3)C1)C2 (stereo not given) | 0 | -12 | 3 | 0.5 | -9 | 7
COc1ccccc1N(C)S(=O)(=O)c1ccc(Cl)c(C(=O)NCc2ccco2)c1 | 4 | -13 | -28 | -0.5 | · | -6
CCc1nnc(NC(=O)CSc2nc3ccccc3s2)s1 | 0 | -16 | -25 | 1.2 | -2 | 8
O=c1c2[nH]c3ccc(F)cc3c2ncn1CCCn1ccnc1 | -20 | -5 | -5 | -0.5 | 13 | -16
S=C(Nc1cccc(Cl)c1)NC1CC2CCCC(C1)N2C1CCCC1 (stereo not given) | · | -4 | -11 | 2.0 | -2 | -1
COc1cccc(NC(=S)Nc2cccnc2)c1 | 9 | 25 | 3 | -0.1 | -1 | -3
Cc1ccc2c(c1)N(CC(=O)NC1CCCC(C)C1C)C(=O)c1cccnc1O2 (stereo not given) | -1 | 5 | -2 | 1.3 | -2 | 3
Cc1cc(NC(=O)c2ccc(NC(=O)c3cccs3)cc2)no1 | 4 | -12 | -24 | 0.0 | -1 | -3
O=C(COC(=O)c1ccc([N+](=O)[O-])o1)Nc1ccc(N2CCOCC2)cc1 | -22 | -5 | 4 | 0.7 | · | 2
CCOc1ccc(CNc2ccc(S(N)(=O)=O)cc2)cc1 | -12 | 2 | -4 | 1.8 | 7 | -20
CC(=O)Nc1ccc(S(=O)(=O)Oc2ccc(N3C(=O)C4CCCCC4C3=O)cc2)cc1 (stereo not given) | 3 | 10 | 12 | 2.9 | 12 | -5
COc1ccc(C(=S)N2CCCC2)cc1 | 3 | -10 | -7 | 0.6 | 7 | 5
CCOC(=O)/C(=C/c1ccc(F)cc1)NC(C)=O | -3 | 6 | -2 | -0.5 | 0 | -16
COc1ccccc1N1CCN(c2ccnc3cc(Cl)ccc23)CC1 | -3 | 9 | -5 | 1.7 | -11 | -13
CC(C)C(=O)Nc1ccc(NC(=S)NC(=O)c2ccccc2F)cc1 | 0 | -15 | -29 | 1.1 | -8 | 17
O=C(OCC(=O)C12CC3CC(CC(C3)C1)C2)c1ccccc1O | -11 | 45 | -3 | 4.4 | · | 2
c1cc(Nc2ncnc3sc4c(c23)CCC4)ccn1 | 3 | 13 | -17 | -0.3 | -1 | -2
COCCNC(=O)C(=O)N/N=C/c1ccccc1C(F)(F)F | 4 | 17 | -14 | -0.4 | 1 | 3
NS(=O)(=O)c1ccc(CNC(=O)c2ccc(S(=O)(=O)C(F)F)cc2)cc1 | 1 | 34 | -2 | 0.7 | -5 | 5
CCOCCCNC(=O)CCCOc1ccccc1 | 5 | 1 | -6 | 2.6 | -2 | 2
CCCCC(=O)Nc1ccc(C(=O)N2CCCC(C(=O)OCC)C2)cc1 (stereo not given) | 4 | 8 | 1 | -1.1 | 9 | 3
Cc1ccc(NC(=O)c2ccc(OCC3CCCO3)cc2)cc1Cl (stereo not given) | 4 | 0 | -4 | -0.9 | · | -6
COc1cc(-c2cc(C(=O)Nc3ccc(O)cc3)c3ccccc3n2)cc(OC)c1OC | -3 | · | 11 | · | -3 | -8
Cn1ncc2c(=O)[nH]c(N)nc21 | 5 | 6 | -2 | 1.1 | · | 4
COc1cc(NC(=S)NC(=O)c2ccccc2C)ccc1NC(=O)c1cccs1 | -1 | -11 | -25 | -0.1 | 6 | -19
COc1cc(C2NC(=O)NC(c3ccccc3)=C2C(C)=O)c(Br)cc1OCC(N)=O (stereo not given) | -6 | -6 | -2 | 0.3 | -8 | 2
NS(=O)(=O)c1ccc(CNC(=O)Cc2ccccc2F)cc1 | 8 | 6 | -1 | 0.0 | 5 | 0
CCOc1ccc(-n2c(=S)sc3c(=O)n(-c4ccc(F)cc4)c(SCC(=O)O)nc32)cc1 | · | -8 | -2 | -0.7 | -1 | -7
COC(C[C@@H](O)[C@@H](C)[C@H](O)COCc1ccccc1)OC | -14 | 6 | -2 | -0.1 | -33 | 8
COc1cc(OC)c(NC(=O)CNC(=O)Cn2ccc3ccccc3c2=O)cc1Cl | 0 | 0 | -1 | -1.2 | 27 | 0
CCN(C(=O)CSc1n[nH]c(-c2cccs2)n1)C1CCS(=O)(=O)C1 (stereo not given) | 0 | -8 | 1 | 0.1 | -20 | 18
CCOc1ccc2oc(C(=O)N(CCOC)c3c(N)n(CC(C)C)c(=O)[nH]c3=O)c(C)c2c1 | 3 | 9 | -16 | 1.1 | 1 | -1
CCS(=O)(=O)N1CCC(C(=O)Nc2cc(C)ccc2O)CC1 | · | · | -7 | · | -2 | ?
COc1cc(C(=O)OCCC(C)C)cc(OC)c1O | · | -3 | 1 | 0.3 | ? | 1
O=C(Oc1ccc(Br)cc1)c1cncc(Br)c1 | 0 | 2 | -22 | 0.9 | 16 | 1
CCOC(=O)c1c(-c2ccc(C)o2)csc1NC(=O)COC(=O)c1cccs1 | 5 | -3 | -9 | 1.5 | 10 | -2
CC1Cc2ccccc2N1C(=O)COC(=O)c1cc(Br)ccc1O (stereo not given) | -5 | 16 | 2 | 2.5 | -6 | 4
CC(OC(=O)Cc1ccsc1)C(=O)Nc1ccc(C(N)=O)cc1 (stereo not given) | -7 | 20 | -4 | 1.6 | 4 | 7
O=C(Nc1ccc(F)cc1)C1COc2ccccc2O1 (stereo not given) | 5 | -19 | -1 | 0.5 | -1 | 10

Bioassay records (PubChem BioAssay)
